Env fusion inh – inhibitors of HIV-1 Env-driven cell-cell fusion, primary screen, HeLa-JRFL effector, CEM21 target cells, luciferase. inhibition, % at 12.3 µM. 360,000 compounds, 1.1% hits. AID 651610, 2012;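 active means mean replicate inhibition score of at least 50 and every replicate individually at or above 50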;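 further: 0% = plate neutral controls and 100% = maraviroc near 300 nM; one replicate is shown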
UUG fidelity – modulators of yeast start codon fidelity, primary screen, whole organism, S. cerevisiae, single point, plate reader; S. cerevisiae UUG-firefly luciferase reporter, luminescence/redox ratio; activity score, % at 18.7 µM; 350,000 compounds, 0.13% hits; AID 602363, 2012;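 active means replicate mean at a twofold rise or more, about +100% in these data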;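 further: firefly luciferase made from a UUG start codon reports start codon fidelity; reporter light over untreated wells divided by growth signal over untreated wells; some hits fall short of that in this replicate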
* hit, by the source's call; [ ] = dose if it differs, or a comment. These rows are one share of the data. The share of hits here may be higher or lower than overall.

no.	Molecule	Env fusion inh	UUG fidelity
1	O=S(=O)(N[C@@H]1CC[C@@H](CCn2cc(-c3ccccc3F)nn2)O[C@H]1CO)c1ccc(Cl)cc1	22[16.7 µM]	0
2	C[C@@H]1CN([C@H](C)CO)C(=O)c2cc(C#CC(C)(C)O)cnc2O[C@@H]1CN(C)Cc1cncnc1	4[16.7 µM]	14
3	C[C@H]1CN([C@@H](C)CO)C(=O)Cc2cc(NC(=O)CCN3CCOCC3)ccc2O[C@H]1CN(C)S(C)(=O)=O	1[16.7 µM]	-1
4	CS(=O)(=O)Nc1ccc2c(c1)[C@@H]1C[C@H](CC(=O)NC3CCCCC3)O[C@H](CO)[C@@H]1O2	10[16.7 µM]	-12
5	COc1ccc(CNC(=O)C[C@H]2CC[C@H]3[C@@H](COc4ccc(NC(=O)C5CC5)cc4C(=O)N3C)O2)cc1	-4[16.7 µM]	17
6	CC(=O)N(C)C[C@H]1Oc2cc(C#CC3CCCCC3)ccc2S(=O)(=O)N([C@@H](C)CO)C[C@@H]1C	-4[16.7 µM]	-2
7	O=S(=O)(N[C@@H]1CC[C@@H](CCn2cc(-c3ccc(F)cc3)nn2)O[C@@H]1CO)c1ccccc1F	18[16.7 µM]	16
8	O=C(Cc1ccccn1)NCC[C@H]1CC[C@@H](NC(=O)CN2CCOCC2)[C@H](CO)O1	-1[16.7 µM]	-12
9	CC(=O)N(C)C[C@H]1Oc2cc(C#CC(C)C)ccc2S(=O)(=O)N([C@@H](C)CO)C[C@H]1C	-27[16.7 µM]	9
10	C[C@@H]1CN([C@@H](C)CO)C(=O)c2cc(NC(=O)Nc3ccc(C(F)(F)F)cc3)ccc2O[C@@H](C)CCCCO[C@H]1CN(C)Cc1ccncc1	3[16.7 µM]	3
11	C[C@@H]1CN([C@@H](C)CO)C(=O)c2cccc(NC(=O)c3cnccn3)c2O[C@@H]1CN(C)Cc1ccc(Cl)c(Cl)c1	6[16.7 µM]	4
12	CNC[C@H]1OCCCC[C@@H](C)Oc2ccc(N(C)C)cc2C(=O)N([C@H](C)CO)C[C@H]1C	12[16.7 µM]	14
13	COc1ccc(CN(C)C[C@@H]2Oc3ccc(NC(=O)Cc4cn(C)c5ccccc45)cc3CC(=O)N([C@@H](C)CO)C[C@@H]2C)cc1	-7[16.7 µM]	0
14	C[C@@H]1CCCCO[C@H](CN(C)S(=O)(=O)c2ccc(F)cc2)[C@H](C)CN([C@@H](C)CO)C(=O)c2cc(N(C)C)ccc2O1	12[16.7 µM]	12
15	C[C@H]1CN([C@@H](C)CO)C(=O)c2cc(NC(=O)NC3CCCCC3)ccc2O[C@H]1CN(C)Cc1ccc2c(c1)OCO2	6[16.7 µM]	24
16	Cc1ccccc1S(=O)(=O)N[C@H]1CC[C@H](CCn2cc(-c3ccccc3)nn2)O[C@H]1CO	13[16.7 µM]	0
17	C[C@@H]1CCCCO[C@@H](CN(C)C(=O)CCC(F)(F)F)[C@H](C)CN([C@@H](C)CO)C(=O)c2cc(NC(=O)CCCN(C)C)ccc2O1	-15[16.7 µM]	8
18	O=C(C[C@@H]1CC[C@@H](NC(=O)Nc2cc(F)ccc2F)[C@@H](CO)O1)NCc1ccncn1	-4[16.7 µM]	-16
19	Cc1noc(C)c1NC(=O)N(C)C[C@H]1Oc2ncc(/C=C/c3ccccc3)cc2C(=O)N([C@H](C)CO)C[C@@H]1C	-31[16.7 µM]	4
20	CCC(=O)N(C)C[C@@H]1Oc2ncc(C#Cc3ccncc3)cc2C(=O)N([C@H](C)CO)C[C@@H]1C	-26[16.7 µM]	-9
21	CCCC(=O)Nc1ccc2c(c1)C(=O)N(C)[C@H]1CC[C@@H](CC(=O)NCCCN(C)C)O[C@H]1CO2	-2[16.7 µM]	-13
22	CN1CCN(C(=O)C[C@H]2CC[C@@H]3[C@@H](COc4ccc(NC(=O)C5CCCCC5)cc4C(=O)N3C)O2)CC1	15[16.7 µM]	-26
23	C[C@H]1CCCCO[C@H](CN(C)C(=O)Nc2ccc(F)cc2)[C@@H](C)CN([C@@H](C)CO)C(=O)c2cc(NC(=O)Cc3ccccc3)ccc2O1	4[16.7 µM]	-5
24	C[C@@H]1CN([C@@H](C)CO)C(=O)c2cc(NC(=O)Nc3ccccc3)ccc2O[C@@H](C)CCCCO[C@H]1CN(C)CC1CCCCC1	4[16.7 µM]	8
25	CNC[C@H]1Oc2c(NC(=O)c3cnccn3)cccc2C(=O)N([C@@H](C)CO)C[C@@H]1C	3[16.7 µM]	-17
26	COc1ccc(-c2ccc3c(c2)O[C@H](CN(C)C)[C@@H](C)CN([C@@H](C)CO)S3(=O)=O)cc1	13[16.7 µM]	12
27	C[C@@H]1CN([C@H](C)CO)S(=O)(=O)c2ccc(/C=C/c3ccccc3)cc2O[C@H]1CN(C)C(=O)Nc1cc(F)ccc1F	20[16.7 µM]	-3
28	C[C@@H]1CN([C@H](C)CO)C(=O)c2cc(C3=CCCC3)cnc2O[C@H]1CN(C)C(=O)Nc1ccccc1	0[16.7 µM]	4
29	Cc1noc(C)c1NC(=O)N(C)C[C@@H]1Oc2ccc(NS(=O)(=O)c3ccc(Cl)cc3)cc2CC(=O)N([C@@H](C)CO)C[C@H]1C	-10[16.7 µM]	-3
30	C[C@H](CO)N1C[C@H](C)[C@@H](CN(C)C(=O)Nc2ccc(C(F)(F)F)cc2)Oc2ccc(NS(=O)(=O)c3cccs3)cc2CC1=O	-28[16.7 µM]	-2
31	Cc1noc(C)c1NC(=O)Nc1ccc2c(c1)CC(=O)N([C@H](C)CO)C[C@H](C)[C@H](CN(C)S(=O)(=O)c1cccs1)O2	8[16.7 µM]	1
32	CNC[C@@H]1Oc2c(NC(=O)c3ccncc3)cccc2C(=O)N([C@H](C)CO)C[C@@H]1C	13[16.7 µM]	-3
33	C[C@H](CO)N1C[C@H](C)[C@@H](CN(C)S(=O)(=O)c2ccccc2)OCCCC[C@H](C)Oc2ccc(NS(=O)(=O)c3ccc(F)cc3)cc2C1=O	-78[16.7 µM]	-2
34	C[C@@H]1CCCCO[C@@H](CN(C)CC2CCCCC2)[C@H](C)CN([C@@H](C)CO)C(=O)c2cc(NC(=O)Nc3ccccc3)ccc2O1	-3[16.7 µM]	20
35	C[C@@H]1CCCCO[C@@H](CN(C)C(=O)Cc2ccccc2)[C@H](C)CN([C@H](C)CO)C(=O)c2cc(NS(=O)(=O)c3cccs3)ccc2O1	0[16.7 µM]	1
36	C[C@H]1CN([C@@H](C)CO)C(=O)c2cc(N(C)C)ccc2O[C@@H]1CN(C)Cc1ccc2c(c1)OCO2	-3[16.7 µM]	-12
37	CCNC(=O)C[C@@H]1CC[C@@H]2[C@H](COc3ccc(NC(=O)c4cscn4)cc3C(=O)N2C)O1	-9[16.7 µM]	-5
38	COc1ccc(S(=O)(=O)Nc2ccc3c(c2)CC(=O)N([C@@H](C)CO)C[C@H](C)[C@H](CN(C)Cc2ccc(C(F)(F)F)cc2)O3)cc1	11[16.7 µM]	14
39	C[C@@H]1CN([C@H](C)CO)C(=O)c2cc(-c3cccc(C#N)c3)cnc2O[C@H]1CN(C)Cc1ccccc1	12[16.7 µM]	0
40	COC(=O)[C@]1(CCC(=O)OC(C)(C)C)N=C(c2ccc(OCCCO)cc2)O[C@@H]1c1ccccc1	-1[16.7 µM]	6
41	Cc1ccc(S(=O)(=O)N(C)C[C@H]2Oc3ccc(NC(=O)Nc4ccc5c(c4)OCO5)cc3C(=O)N([C@@H](C)CO)C[C@H]2C)cc1	0[16.7 µM]	5
42	C[C@H]1CN([C@@H](C)CO)C(=O)c2cccc(NC(=O)Nc3cccc4ccccc34)c2O[C@H]1CN(C)C(=O)Nc1ccccc1	10[16.7 µM]	-1
43	COc1cccc(S(=O)(=O)N(C)C[C@@H]2Oc3ncc(C#Cc4cccc(F)c4)cc3C(=O)N([C@H](C)CO)C[C@@H]2C)c1	-2[16.7 µM]	-17
44	C[C@@H]1CN([C@H](C)CO)C(=O)Cc2cc(NC(=O)CCC(F)(F)F)ccc2O[C@H]1CN(C)S(=O)(=O)c1cn(C)cn1	-4[16.7 µM]	-9
45	Cc1noc(C)c1NC(=O)Nc1ccc2c(c1)C(=O)N([C@H](C)CO)C[C@@H](C)[C@@H](CN(C)S(=O)(=O)c1ccc(F)cc1)O2	-15[16.7 µM]	-2
46	COc1ccc(S(=O)(=O)N(C)C[C@@H]2Oc3ccc(NC(=O)Nc4ccccc4)cc3CC(=O)N([C@@H](C)CO)C[C@@H]2C)cc1	9[16.7 µM]	7
47	COc1ccc(S(=O)(=O)Nc2ccc3c(c2)C(=O)N([C@H](C)CO)C[C@@H](C)[C@H](CN(C)Cc2ccc(-c4ccccc4)cc2)O3)cc1	-1[16.7 µM]	3
48	C[C@H]1CN([C@@H](C)CO)C(=O)c2cc(NC(=O)Nc3ccc(F)cc3)ccc2O[C@@H]1CN(C)S(=O)(=O)c1ccc(Cl)cc1	-23[16.7 µM]	-9
49	C[C@H](CO)N1C[C@H](C)[C@@H](CN(C)Cc2ccc3c(c2)OCO3)Oc2ccc(NC(=O)CCC(F)(F)F)cc2CC1=O	-4[16.7 µM]	-4
50	COc1ccc(S(=O)(=O)Nc2cccc3c2O[C@@H](CN(C)C(=O)Nc2ccc4c(c2)OCO4)[C@@H](C)CN([C@H](C)CO)C3=O)cc1	-40[16.7 µM]	19
51	Cc1ccc(S(=O)(=O)N(C)C[C@@H]2OCCCC[C@@H](C)Oc3ccc(NC(=O)Nc4ccccc4)cc3C(=O)N([C@H](C)CO)C[C@@H]2C)cc1	-25[16.7 µM]	-15
52	C[C@@H]1CN([C@@H](C)CO)C(=O)c2cc(-c3cccnc3)cnc2O[C@H]1CN(C)Cc1ccc(Oc2ccccc2)cc1	16[16.7 µM]	-10
53	C[C@@H]1CN([C@H](C)CO)C(=O)c2cc(-c3ccc(C(=O)N(C)C)cc3)cnc2O[C@@H]1CN(C)C(=O)C1CC1	-25[16.7 µM]	-9
54	C[C@@H]1CN([C@H](C)CO)C(=O)c2cc(NS(=O)(=O)c3cn(C)cn3)ccc2O[C@@H](C)CCCCO[C@H]1CN(C)S(=O)(=O)c1cn(C)cn1	8[16.7 µM]	0
55	CN(C)CC(=O)N1[C@@H](C#N)[C@H](c2ccc(C#CC3CC3)cc2)[C@@H]1CO	4[16.7 µM]	12
56	CC(C)C#Cc1cnc2c(c1)C(=O)N([C@H](C)CO)C[C@@H](C)[C@H](CN(C)C(=O)c1ccc3c(c1)OCO3)O2	10[16.7 µM]	0
57	CCCC#Cc1ccc2c(c1)O[C@@H](CN(C)Cc1cccnc1)[C@H](C)CN([C@@H](C)CO)S2(=O)=O	32[16.7 µM]	-8
58	COc1ccc(S(=O)(=O)Nc2ccc3c(c2)C(=O)N([C@H](C)CO)C[C@H](C)[C@@H](CN(C)Cc2ccc(C(=O)O)cc2)OCCCC[C@H](C)O3)cc1	15[16.7 µM]	2
59	O=C(C[C@@H]1C=C[C@@H](NC(=O)Nc2ccccc2F)[C@H](CO)O1)NCc1ccc(-c2ccccc2)cc1	-13[16.7 µM]	-9
60	C[C@H]1CN([C@@H](C)CO)C(=O)c2cc(Br)cnc2O[C@H]1CN(C)CC1CCCC1	6[16.7 µM]	-7

Single values from above:
UUG fidelity with compound 41 → 5
Env fusion inh with compound 53 → -25[16.7 µM]
Env fusion inh with compound 40 → -1[16.7 µM]
Env fusion inh with compound 55 → 4[16.7 µM]

Reprinted at random: two records from the list.
no.	Molecule	Env fusion inh	UUG fidelity
34	C[C@@H]1CCCCO[C@@H](CN(C)CC2CCCCC2)[C@H](C)CN([C@@H](C)CO)C(=O)c2cc(NC(=O)Nc3ccccc3)ccc2O1	-3[16.7 µM]	20
32	CNC[C@@H]1Oc2c(NC(=O)c3ccncc3)cccc2C(=O)N([C@H](C)CO)C[C@@H]1C	13[16.7 µM]	-3

The listing picks up, starting 2 compounds before the break.
no.	Molecule	Env fusion inh	UUG fidelity
59	O=C(C[C@@H]1C=C[C@@H](NC(=O)Nc2ccccc2F)[C@H](CO)O1)NCc1ccc(-c2ccccc2)cc1	-13[16.7 µM]	-9
60	C[C@H]1CN([C@@H](C)CO)C(=O)c2cc(Br)cnc2O[C@H]1CN(C)CC1CCCC1	6[16.7 µM]	-7
61	C[C@@H]1CN([C@@H](C)CO)C(=O)c2cccc(NC(=O)C3CC3)c2O[C@H]1CN(C)S(=O)(=O)c1cccs1	11[16.7 µM]	5
62	O=C(NCC[C@@H]1CC[C@@H](NS(=O)(=O)c2cccc(Cl)c2)[C@H](CO)O1)c1cnccn1	5[16.7 µM]	3
63	C[C@@H]1CCCCO[C@@H](CN(C)Cc2ccccc2)[C@@H](C)CN([C@H](C)CO)C(=O)c2cc(NS(=O)(=O)c3cccs3)ccc2O1	-5[16.7 µM]	17
64	Cc1cc(C(=O)Nc2cccc3c2O[C@@H](CN(C)Cc2ccc(Cl)c(Cl)c2)[C@H](C)CN([C@@H](C)CO)C3=O)n(C)n1	22[16.7 µM]	4
65	CC(C)NC(=O)N(C)C[C@H]1Oc2c(NC(=O)Nc3ccc(C(F)(F)F)cc3)cccc2C(=O)N([C@H](C)CO)C[C@H]1C	16[16.7 µM]	5
66	Cc1noc(C)c1S(=O)(=O)Nc1ccc2c(c1)CC(=O)N([C@H](C)CO)C[C@H](C)[C@@H](CN(C)S(=O)(=O)c1ccccc1)O2	9[16.7 µM]	7
67	COCC(=O)Nc1ccc2c(c1)OC[C@H](C)N(CCc1ccccc1)C[C@@H](C)[C@H](OC)CN(C)C2=O	22[16.7 µM]	5
68	Cc1ccc(-c2cnc3c(c2)C(=O)N([C@@H](C)CO)C[C@H](C)[C@@H](CN(C)C(=O)c2ccccc2)O3)cc1	2[16.7 µM]	7
